# Source: PubChem BioAssay (National Center for Advancing Translational Sciences (NCATS))
# TRPV1 PAM: human TRPV1 potentiation | Q8NER1 | TRPV1-expressing cells, Fluo-8 calcium influx, capsaicin EC20 potentiation; host cell line not named in the record; control for the full effect not named in the record | potentiation, % at 8.33 µM | 320,000 compounds, 0.02% hits | AID 540277; active means potentiation above 80%; inconclusive means 30% to 80%; inactive means below 30%; also: 0% is about no effect
#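 Fluo-8 calcium influx in TRPV1-expressing cells, kinetic read (ex 480/em 520 nm). Compound added and read 3 min for agonist activity, followed by capsaicin at EC20 final and 2 min further read for enhancement.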
# CtBP-E1A inh: CtBP/E1A binding inhibition | AlphaScreen GST-E1A/His-CtBP binding, 1536-well; stronger effect = lower value; control for the full effect not named in the record | AID 651724 | activity change, % (concentration not given with the values) | 340,000 compounds, 0.49% hits; in the data active means activity change below about -65%; inconclusive means about -30% to -65%; inactive means above about -30%; also: % is scaled to controls: 0 for no effect and ±100 for the full control effect
#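 Steps: dispense buffer (Tris pH 8.0, NaCl 300 mM, TCEP 1 mM, BSA, Tween 20); add 5X protein mix (GST-E1A, His-CtBP, 125 nM each); pin 23 nL compound; 2 h at 37 °C, dark; add 5X beads (50 ug/mL); 1 h; read.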
# D2 PAM: potentiates the human D2 dopamine receptor allosterically | DiscoveRx D2 beta-arrestin cells, luminescence, 90 min; 100% = 57 uM dopamine signal | potentiation, % (test concentration not listed) | 360,000 compounds, 0.23% hits; active = potentiation of 50% or more; inconclusive = 30% to 50%; inactive = 30% or less;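 also: compound concentration not given in the record; tested on top of an EC20 dose of dopamine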
#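 PathHunter beta-arrestin assay in DiscoveRx D2 cells. Compounds were added with an EC20 of dopamine (50 nM final) for 90 min at 37 deg C. Luminescence was read 1 h after detection reagent, with 57 uM dopamine as the EC100 control.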
# TRPML1 inh: human mucolipin-1 channel inhibition; Q9GZU1; TRPML1-inducible cells, Ca2+ dye fluorescence, FDSS; stronger effect = lower value; inhibition of EC80 agonist-evoked calcium signal; activity change, negative = inhibition, % (no concentration beside the values); 390,000 compounds, 0.02% hits; AID 624415; in the data active means activity change below about -50%; inconclusive means about -30% to -50%; inactive means above about -30%;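 also: stimulus is agonist 54-4 at its EC80 concentration; % is scaled to controls: 0 for no effect and ±100 for the full control effect; compound concentration not given in the record; the text of the record puts the active cut at -80%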
# Target sequence (Q9GZU1 whole entry, looked up): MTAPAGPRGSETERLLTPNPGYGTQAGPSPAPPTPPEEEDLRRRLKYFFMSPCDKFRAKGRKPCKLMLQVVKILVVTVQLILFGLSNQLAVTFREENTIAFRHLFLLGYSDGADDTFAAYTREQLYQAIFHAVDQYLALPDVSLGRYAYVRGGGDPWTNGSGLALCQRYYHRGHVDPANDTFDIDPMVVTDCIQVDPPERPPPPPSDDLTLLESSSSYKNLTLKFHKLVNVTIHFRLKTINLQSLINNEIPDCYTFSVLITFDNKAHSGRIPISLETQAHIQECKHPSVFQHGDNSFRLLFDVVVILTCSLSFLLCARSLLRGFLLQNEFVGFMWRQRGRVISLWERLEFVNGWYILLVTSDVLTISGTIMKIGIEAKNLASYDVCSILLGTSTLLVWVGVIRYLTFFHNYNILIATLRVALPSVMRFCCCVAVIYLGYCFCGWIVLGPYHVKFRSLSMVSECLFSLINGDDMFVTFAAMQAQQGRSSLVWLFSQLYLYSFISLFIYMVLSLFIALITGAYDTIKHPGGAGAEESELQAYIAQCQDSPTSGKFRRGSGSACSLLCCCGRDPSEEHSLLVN
#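 Tet-induced TRPML1-DL cells loaded with Ca8 no-wash calcium dye were read kinetically on FDSS. Compound addition was followed by EC80 agonist 54-4 (4 uM final); inhibition was read over 110 s.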
# TRPML1 agonist: human mucolipin-1 channel agonism | AID 624414 | activation, % (no concentration beside the values) | 410,000 compounds, 0.12% hits | TRPML1-expressing cells, Ca2+ dye fluorescence, FDSS; host cell line not named in the record; reference of the full effect not given here | Q9GZU1; in the data active = activation above about 50%; inconclusive = about 30% to 50%; inactive = below about 30%; also: 0% is about no effect; the text of the record puts the active cut at 80%
#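 TRPML1-DL cells, Tet-induced overnight (~16 h, 37 degrees C), loaded 45-90 min at room temperature with Ca8 no-wash calcium dye plus quencher. FDSS fluorescence: 10 s baseline, compound pin-transfer, 110 s agonist read, then EC80 54-4 (4uM final) and 110 s antagonist read.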
# Six1-Eya2 blk: inhibitors of human Six1/Eya2 interaction; AlphaScreen GST-Six1/His-Eya2 binding, biochemical; stronger effect = lower value; control for the full effect not named in the record; 360,000 compounds, 0.56% hits; Q15475+O00167; AID 651725; activity change, % (no concentration beside the values); in the data active = activity change below about -65%; inconclusive = about -30% to -65%; inactive = above about -30%; also: % is scaled to controls: 0 for no effect and ±100 for the full control effect
#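 Six1/Eya2 binding was read as AlphaScreen signal after compounds were pinned into GST-Six1 plus His-tagged Eya2 (5X stock 250/500 nM) in pH 8.0 Tris/NaCl/TCEP buffer, beads added, then incubated 1 h, 37 C, dark.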
# The depositor's hits bear a star; ? = inconclusive; . = not tested or not shown; & = joins results of further samples.
# The opening 6 records as a preview:
cpd	Compound	TRPV1 PAM	CtBP-E1A inh	D2 PAM
1	O=C(Nc1ccc(F)cc1F)c1cc(-c2ccco2)nc2ccccc12	?	-14	-1
2	CC(C)N(C)c1ncnc2c1ncn2[C@H]1CN(Cc2ccc(Cl)cc2)C[C@@H](CO)O1	.	23	2
3	CC(=O)N(C)c1ccc(NS(=O)(=O)c2cc(Cl)ccc2Cl)cc1	0	1	-2
4	Cc1ccc(OCC(=O)Nc2ccncc2)cc1	-6	-8	8
5	C/C(N)=C(/C#N)C(=O)CSc1nnnn1-c1ccccc1	7	1	11
6	CCCC(=O)N1CCCC(c2cc(C(=O)NCc3cccnc3)no2)C1 (stereo not given)	.	4	-7

cpd	TRPML1 inh	TRPML1 agonist	Six1-Eya2 blk
1	-2	-0.6	-12
2	.	-0.5	18
3	-2	0.0	1
4	-7	-1.1	14
5	12	-0.9	-6
6	.	-0.5	4

# Main list, from the start:
cpd	Compound	TRPV1 PAM	CtBP-E1A inh	D2 PAM
1	O=C(Nc1ccc(F)cc1F)c1cc(-c2ccco2)nc2ccccc12	?	-14	-1
2	CC(C)N(C)c1ncnc2c1ncn2[C@H]1CN(Cc2ccc(Cl)cc2)C[C@@H](CO)O1	.	23	2
3	CC(=O)N(C)c1ccc(NS(=O)(=O)c2cc(Cl)ccc2Cl)cc1	0	1	-2
4	Cc1ccc(OCC(=O)Nc2ccncc2)cc1	-6	-8	8
5	C/C(N)=C(/C#N)C(=O)CSc1nnnn1-c1ccccc1	7	1	11
6	CCCC(=O)N1CCCC(c2cc(C(=O)NCc3cccnc3)no2)C1 (stereo not given)	.	4	-7
7	O=C(NC(=S)NCc1cccnc1)c1cccc2ccccc12	-5	-1	1
8	Cc1ccc(C(=O)CCNc2ccc(Br)cc2)o1	-11	-1	-22
9	CCn1c(SCC(=O)N/N=C/C(C)=C/c2ccco2)nnc1-c1ccccc1	5	-6	4
10	CSc1nc2ncc3c(n2n1)CC1c2ccccc2CCN1C3=O (stereo not given)	0	7	-36
11	CCn1c(SCc2ccc(OC)cc2)nnc1-c1ccncc1	-15	7	-12
12	CCCCN1CC(=O)N2[C@H]3c4cc(Br)ccc4OC[C@@H]3[C@H](C(=O)OCC)[C@]2(C)C1=O	-13	-1	-8
13	O=C(CNCC1CCCO1)Nc1ccc(N2CCCCCC2)cc1 (stereo not given)	-9	-5	-12
14	O=C(NCC1CCCO1)c1ccc([N+](=O)[O-])s1 (stereo not given)	-6	?	1
15	Fc1cccc2sc(N3CCOCC3)nc12	-3	3	-8

cpd	TRPML1 inh	TRPML1 agonist	Six1-Eya2 blk
1	-2	-0.6	-12
2	.	-0.5	18
3	-2	0.0	1
4	-7	-1.1	14
5	12	-0.9	-6
6	.	-0.5	4
7	-8	-0.5	10
8	1	-1.1	-12
9	0	0.6	-8
10	14	0.8	-3
11	6	0.4	4
12	-19	-0.7	0
13	15	-0.6	-14
14	?	1.2	6
15	5	-1.0	1

# Next part; the last 2 above are carried over.
cpd	Compound	TRPV1 PAM	CtBP-E1A inh	D2 PAM
14	O=C(NCC1CCCO1)c1ccc([N+](=O)[O-])s1 (stereo not given)	-6	?	1
15	Fc1cccc2sc(N3CCOCC3)nc12	-3	3	-8
16	O=C(CC(c1ccccc1)c1ccco1)Nc1nccs1 (stereo not given)	-25	-3	-13
17	O=C(NC1CCCC1)C(c1cccnc1)N(C(=O)c1csnn1)c1ccccc1Cl (stereo not given)	-1	0	-3
18	O=C1CCN(CCc2ccccc2)CCN1CCSc1ccc(Br)cc1	-20	-7	-20
19	Cc1csc(NC(=O)c2ccc3nc[nH]c3c2)n1	-7	-4	-1
20	Cc1n[nH]c(=O)n(N=Cc2c[nH]c3ccccc23)c1=O	.	1	-3
21	COc1ccc(-c2csc(NC(=O)CS(=O)(=O)c3ccc(F)cc3)n2)cc1OC	3	-8	19
22	Cc1ccccc1NC(=O)c1cccc(NC(=O)c2ccccc2C(=O)O)c1	.	5	-7
23	O=C(CN1CCN(S(=O)(=O)c2ccc(Br)cc2)CC1)N/N=C/c1ccncc1	5	0	0
24	CCOC(=O)Nc1sc(=S)n(C)c1C	?	0	-8
25	COc1ccc(NC(=O)COC(=O)c2cc(=O)c3ccccc3o2)cc1OC	3	23	-9
26	N#Cc1cccc(NS(=O)(=O)c2ccc(S(=O)(=O)N3CCOCC3)cc2)c1	18	11	-15
27	O=C(Nc1nccs1)c1ccc(-c2ccc(F)cc2)o1	-23	-11	-6
28	CCn1ncc(C2=NOC(C(=O)N3CCC(C(N)=O)CC3)C2)c1C (stereo not given)	-3	10	0
29	O=C(COC(=O)C1(c2ccc(F)cc2)CCCC1)NC1CC1	-17	-8	-9
30	O=C(CCNC(=O)C1CCN(S(=O)(=O)c2ccc(F)cc2)CC1)NCc1cccnc1	5	4	0

cpd	TRPML1 inh	TRPML1 agonist	Six1-Eya2 blk
14	?	1.2	6
15	5	-1.0	1
16	14	1.2	-13
17	2	-1.7	13
18	18&25	2.3&0.1	-4
19	-19	0.5	0
20	20	-0.3	0
21	0	0.2	-28
22	-2	0.9	3
23	8	0.9	-3
24	-12	0.5	1
25	-1	0.0	-2
26	15	-0.2	0
27	1	0.8	-10
28	-11	-0.3	3
29	15	0.9	3
30	-7	0.5	1

# Down the list, quoted from above:
# Entries 22 to 26 in D2 PAM, in turn: -7, 0, -8, -9, -15
# Entries 22 to 26 in CtBP-E1A inh, in turn: 5, 0, 0, 23, 11
# Entries 22 to 26 in TRPML1 inh, in turn: -2, 8, -12, -1, 15

# (next part)
cpd	Compound	TRPV1 PAM	CtBP-E1A inh	D2 PAM
31	CSCCC(NS(=O)(=O)c1ccccc1F)C(=O)NCc1ccncc1 (stereo not given)	12	4	-4
32	O=CNc1cc(-c2ccccc2)cn2c(-c3ccc(F)c(Cl)c3)cnc12	.	-7	-7
33	Cc1ccc(Cn2c(=N)c(C(=O)NCC3CCCO3)cc3c(=O)n4ccccc4nc32)cc1 (stereo not given)	-3	3	-15
34	CC(=NC1CC1)C1=C(O)c2ccccc2C1=O	1	-1	-2
35	O=C1NC(=O)C(CC(=O)N(c2ccccc2)C2(C(=O)NC3CCCC3)CCCCC2)N1 (stereo not given)	5	3	-13
36	COc1ccc2[nH]c(=O)c(CNc3ccc(C)c(C)c3)cc2c1	-8	-4	-21
37	CC(C)(C)NC(=O)/C(=C\C=C\c1ccccc1)NC(=O)c1ccc([N+](=O)[O-])cc1	6	-3	-2
38	CC(=O)N(CC(=O)Nc1sc(C)c(C)c1C(N)=O)Cc1ccccc1	3	-15	-2
39	Cn1c(N)c(C(=O)COC(=O)CNC(=O)c2ccc(Cl)cc2Cl)c(=O)n(C)c1=O	.	-5	-2
40	C[C@@H]1CN([C@@H](C)CO)C(=O)c2cccc(NS(C)(=O)=O)c2O[C@H]1CN(C)Cc1ccc(Oc2ccccc2)cc1	.	0	-7
41	COCCn1c(-c2ccccc2)cnc1N	2	?	-26
42	OCC1(C2=NOC(O)(C(F)(F)F)C2)CCCCC1 (stereo not given)	5	-1	3
43	CCC(=O)c1cn(CC(=O)Nc2ccccc2F)c2ccccc12	6	1	-15
44	C=CCSc1nnc(Cn2c(=O)sc3ccccc32)n1C	4	4	0
45	COc1ccc(C(C)(C)C)cc1S(=O)(=O)n1ccnc1C	-1	5	0

cpd	TRPML1 inh	TRPML1 agonist	Six1-Eya2 blk
31	-7	-0.7	0
32	20	1.0	-12
33	32	-0.5	13
34	42	2.9	-6
35	15	-0.4	7
36	12	5.8	-9
37	18	1.3	1
38	5	-0.7	0
39	-10	-1.0	-6
40	11	-0.4	0
41	22	0.8	-88*
42	19	-0.1	2
43	-7	0.7	8
44	14	-0.1	7
45	17	3.4	5

# Continued.
cpd	Compound	TRPV1 PAM	CtBP-E1A inh	D2 PAM
46	O=[N+]([O-])c1ccccc1C(O)Cc1ccccn1 (stereo not given)	.	3	-5
47	O=C(CN1C(=O)NC2(CCCc3ccccc32)C1=O)c1ccccc1F (stereo not given)	.	1	-3
48	Cn1c(SCC(=O)Nc2nccs2)nnc1-c1ccccn1	-3	-17	-5
49	CCc1ccc(NC(=O)c2ccc3c(c2)CCN3S(C)(=O)=O)cc1	.	-3	-22
50	CCCCc1nc2sc3c(c2c(=O)n1NC(=O)c1ccco1)CC(C)(C)OC3	0	-11	-11
51	N#CC(=C(O)CN1CCN(c2ccccc2F)CC1)c1nc(-c2ccccc2)cs1	.	-29	-10
52	COc1cccc(-c2noc(C3CCCN(C(=O)CC(C)(C)C)C3)n2)c1 (stereo not given)	2	0	-3

cpd	TRPML1 inh	TRPML1 agonist	Six1-Eya2 blk
46	-7	0.8	5
47	10	0.2	-2
48	14	0.4	-13
49	1	-0.8	24
50	-4	1.8	2
51	-12	0.3	-23
52	62	1.3	8

# Looked up above:
# Under D2 PAM, CCc1ccc(NC(=O)c2ccc3c(c2)CCN3S(C)(=O)=O)cc1 has the entry -22
# Under TRPML1 inh, N#CC(=C(O)CN1CCN(c2ccccc2F)CC1)c1nc(-c2ccccc2)cs1 has the entry -12
# Under D2 PAM, Cn1c(SCC(=O)Nc2nccs2)nnc1-c1ccccn1 has the entry -5
# Under D2 PAM, O=[N+]([O-])c1ccccc1C(O)Cc1ccccn1 (stereo not given) has the entry -5
